Compound activity as filed in PubChem BioAssay.
Rango release inh = inhibition of RanGTP-driven Rango-importin beta dissociation | O95149+P62826 | Biochemical FRET Rango-importin beta, RanGTP-induced dissociation | Potency, µM (titrated, usually from 46.1 µM), for the others: at the highest dose activity change, negative = inhibition | hit rate 0.071% among 340,000 | AID 540253; active means falling FRET ratio curve, often poorly fitted, with flat reads before Ran was added; inconclusive means other falling curves, or compound fluorescence or quenching; inactive means flat or rising ratio curve;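 note: potency is the fitted concentration of half-maximal effect; % of control where 0% means no effect; nearly all actives have a fitted effect of over 45% in size; -100% = wells without RanGTP and RCC1; the record marks most hits as doubtful in a second field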
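Rango (0.1 uM)–importin beta (0.25 uM) complex; RanGTP-RCC1 trigger; 45 min RT; CFP/YFP FRET read.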
GLA inh pH 4.5 = blocks human alpha-galactosidase A at pH 4.5. P06280. purified enzyme, 4-MU-alpha-Gal fluorescence, pH 4.5. activity change, negative = inhibition, % at 105 µM. 230,000 tested, under 10 active. AID 1467; inconclusive = small, poorly fitted or top-dose-only inhibition, or a rising curve; inactive = flat fitted curve, though single readings scatter; no compound was filed as active;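 note: 0% = full activity with enzyme and -100% = basal without enzyme; dose as in the result columns while the protocol names 77 µM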
Rango complex inh = Rango-importin beta binding inhibition; Potency, µM (top dose mostly 92.2 µM), inactives show top-dose inhibition of complex formation; hit rate 0.031% among 340,000; Q14974; AID 540263; Rango CFP/YFP FRET sensor + importin beta, 45 min; active = rising FRET ratio curve, often small or poorly fitted; inconclusive = mostly compound fluorescence or quenching in the first reads; inactive = flat curves in all reads;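 note: potency is the fitted concentration of half-maximal effect; 0% = DMSO wells and 100% = buffer wells lacking importin beta; nearly all actives have a fitted effect of over 15% in size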
Target sequence (Q14974 whole entry, looked up): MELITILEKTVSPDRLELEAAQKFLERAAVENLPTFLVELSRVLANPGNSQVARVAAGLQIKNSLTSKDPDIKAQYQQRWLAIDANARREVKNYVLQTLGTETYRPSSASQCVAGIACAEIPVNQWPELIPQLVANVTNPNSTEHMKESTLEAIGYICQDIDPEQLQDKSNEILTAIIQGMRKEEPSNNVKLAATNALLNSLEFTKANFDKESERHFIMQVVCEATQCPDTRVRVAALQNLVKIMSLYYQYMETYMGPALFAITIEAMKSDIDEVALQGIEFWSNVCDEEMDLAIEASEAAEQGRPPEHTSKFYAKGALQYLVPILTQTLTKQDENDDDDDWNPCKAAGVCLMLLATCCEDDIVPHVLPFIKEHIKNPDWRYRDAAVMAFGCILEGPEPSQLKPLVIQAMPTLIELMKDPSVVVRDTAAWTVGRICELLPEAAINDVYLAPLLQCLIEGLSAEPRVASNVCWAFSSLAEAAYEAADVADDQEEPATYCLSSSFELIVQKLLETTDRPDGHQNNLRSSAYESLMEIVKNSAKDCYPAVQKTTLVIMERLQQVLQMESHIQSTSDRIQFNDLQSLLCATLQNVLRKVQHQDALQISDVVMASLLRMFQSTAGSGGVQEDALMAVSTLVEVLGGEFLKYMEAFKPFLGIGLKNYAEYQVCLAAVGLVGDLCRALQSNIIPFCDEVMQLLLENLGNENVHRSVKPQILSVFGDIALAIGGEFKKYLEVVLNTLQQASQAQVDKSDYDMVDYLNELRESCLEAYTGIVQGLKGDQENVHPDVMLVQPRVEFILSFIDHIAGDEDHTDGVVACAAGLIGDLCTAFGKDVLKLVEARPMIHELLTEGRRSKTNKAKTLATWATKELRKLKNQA
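FRET biosensor (snurportin 1 IBB flanked by EYFP and cerulean), 50 nM, with compound 5 min, then 0.125 microM importin beta in PBS, 1 mM DTT, 0.02% Tween-20, 0.1% BSA. CFP/YFP ratio read after 45 min at room temperature; pre-read flags interference.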
miR-21 FLuc = raises the signal of a miR-21 reporter | HeLa miR-21 FLuc reporter, luciferase, 48 h | Potency, µM (series often up to 38.3 µM), without a hit: top-dose reporter change, positive = more light | 340,000 tested, under 10 active | AID 2288; active = well fitted rising curve with a large enough effect; inconclusive = small, poorly fitted or top-dose-only effect; inactive = no such curve, though single readings can be large or run the other way;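 note: % of control where 0% means no effect; miR-21 action dims this reporter so a rising signal means less miR-21 action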
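Luminescence from a firefly luciferase reporter carrying a miR-21 binding site downstream, stably expressed under a CMV promoter in HeLa cells that make miR-21 endogenously, reports miRNA modulation after 48 h compound exposure up to approximately 40uM final.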
An asterisk follows results filed as active; ? = inconclusive; · = no result given; [ ] = another dose, or the depositor's remark. A portion of the library; count on the stated rates, not on these rows.

Below each compound: Rango release inh, GLA inh pH 4.5, Rango complex inh, miR-21 FLuc
CCOc1cc(C(=S)N2CCOCC2)ccc1OC(=O)c1cc(OC)c(OC)c(OC)c1
    ?, ·, -0.8%, -1%
COc1cc2cc(C(=O)N3CCOCC3)cc(-c3ccc(C)cc3)c2cc1OC
    6%, ·, -0.3%, 7%
O=C(OCC(=O)N1CCc2ccccc21)c1cccc(S(=O)(=O)N2CCCc3ccccc32)c1
    -12%, 5, -0.7%, -10%
COc1ccc(CN(CC2CCC(C(=O)O)CC2)C(=S)Nc2ccccc2OC)cc1 (stereo not given)
    -11%, -13, -3.1%, 4%
C=CC1=CCN(S(=O)C(C)(C)C)[C@H]1CCO (stereo not given in full)
    -18%, ·, -4.9%, ·
O=C(O)C12CC3CC(C1)CC(n1ncc(NCc4ccccc4)c(Cl)c1=O)(C3)C2
    3%, 2[21.1 µM], 0.0%, 0%
O=C(Nc1ccc(Cl)cc1)/C(=C1\CCCN1)[N+](=O)[O-]
    -11%, -5, -1.3%, -28%
CN(CC(=O)Nc1ccc(OC(F)(F)F)cc1)C(=O)Cc1cccs1
    34%, ·, 1.2%, ·
CCc1nnc(NC(=O)CCC(=O)NCc2ccccc2OC)s1
    30%, 2, -2.0%, 1%
O=C(N/N=C/c1cccc([N+](=O)[O-])c1O)C(O)(c1ccccc1)c1ccccc1
    ?, ·, -0.8%, 20%
C[C@@H](N)C(=O)NC[C@H]1CC[C@H](C(=O)N[C@@H](Cc2ccccc2)C(=O)O)CC1
    -12%, ·, 2.3%, 0%
Cc1ccccc1C(=O)NNC(=O)CSc1nnc(C)n1-c1ccccc1
    -9%, 1, -0.9%, -4%
O=C(NNC(=O)C1CCN(C(=O)Nc2ccccc2)CC1)c1ccc([N+](=O)[O-])cc1
    16%, ·, 0.8%, ·
Cc1ccc(N2C(=O)SC(N(CC(=O)O)c3cccc(C)c3)C2=O)cc1 (stereo not given)
    ?, 0, ?, -51%
Cn1c(=O)c2[nH]c(N/N=C(/C#N)C(N)=O)nc2n(C)c1=O
    -28%, -5, 0.3%, 9%
CCCC(=O)Nc1cnc(NC(=O)c2cccc(F)c2)cc1C
    -2%, 2, 3.5%, 8%
Cc1cc(C(=O)CSc2nc3ccc(Cl)cc3[nH]2)c(C)n1CC1CCCO1 (stereo not given)
    0%, -1, 1.5%, 17%
N#CC1(NC(=O)COC(=O)Cc2n[nH]c(=O)c3ccccc23)CCCCC1
    9%, ·, 0.3%, ·
Cc1cc(Cn2nc(C(=O)NCc3cccs3)cc2-c2ccccc2)on1
    -16%, ·, -2.6%, ·
COCCn1nnnc1C(c1ccccc1OC)N1CCc2ccccc2C1 (stereo not given)
    -7%, ·, 1.6%, ·

Below each compound: Rango release inh, GLA inh pH 4.5, Rango complex inh, miR-21 FLuc
CCC(=O)/C(=C(/O)c1ccccc1)c1nc2ccccc2[nH]1
    15%, 2, 1.1%, -38%
CCOC(=O)c1oc2ccc3c(c2c1C)C(=O)CC1(CCN(C(=O)OCC)CC1)O3
    16%, 1, 2.5%, -10%
N/C(Cc1ccc([N+](=O)[O-])cc1)=N\OC(=O)c1ccc(Br)o1
    47%, -11, 0.9%, -6%
CC1CCCC(NC(=O)COC(=O)COc2ccc(C#N)cc2)C1C (stereo not given)
    -11%, ·, -1.2%, ·
CCN1C(=O)C(O)(CC(=O)c2ccc3c(c2)OCCO3)c2ccccc21 (stereo not given)
    -20%, 1, 3.5%, 5%
O=C(CN1C(=O)C2C3CCC(C3)C2C1=O)OCC(=O)c1ccc(Br)cc1 (stereo not given)
    2%, ·, 0.3%, -1%
CCOC(=O)c1c(-c2ccc(C)cc2)csc1NC(=O)C1CC=CCC1C(=O)O (stereo not given)
    -12%, 3, 1.4%, -6%
C=CCN1CN(Cc2ccco2)CNC1=S
    20%, 1, 0.5%, 0%
O=C(c1ccc(C(F)(F)F)cc1)N1CCC(=O)N(C(COCc2ccc(Cl)cc2)Cc2ccccc2)CC1 (stereo not given)
    -6%, -10, 0.5%, 7%
CN(C)Cc1c(C(=O)N/N=C/c2cccc(OCc3ccc(F)cc3)c2)nnn1-c1nonc1N
    9%, ·, 3.1%, 4%
Cc1nnc(SCSc2nnc(C)s2)s1
    0%, 1, -2.5%, -5%
O=C(/C=C/c1cn(-c2ccccc2)nc1-c1cccnc1)N1CCCCC1
    10%, -6, -0.2%, -8%
COc1c2ccc(OCC/C(C)=C/C(=O)C=C(C)C)cc2nc2occc12
    -25%, ·, ?, ·
CC(=O)NNC(=O)C(O)(c1ccccc1)c1ccccc1
    11%, -2, 0.5%, 2%
Cc1cccc(N(C(=O)c2snc(C(N)=O)c2N)C(C(=O)NCC2CCCO2)c2ccc(N(C)C)cc2)c1 (stereo not given)
    16%, ·, 1.3%, 8%
c1ccc(-n2ncc3c2ncn2nnnc32)cc1
    -1%, -1, 9.9%, -2%
c1ccc(NCc2cccc3ccccc23)nc1
    10%, ·, -0.3%, 2%
CCCC(=O)c1ccc(N2CCN(C(=O)c3ccccc3Br)CC2)c(F)c1
    14%, -18, -7.8%, 9%
N#CC1=C(N)OC2=C(C(=O)CCC2)C1c1cccs1 (stereo not given)
    1%, 4, 1.3%, -11%
Clc1ccc(CNCC2CCCO2)c(Cl)c1 (stereo not given)
    0%, ·, 5.3%, ·

As a working copy, some entries already given.
Below each compound: Rango release inh, GLA inh pH 4.5, Rango complex inh, miR-21 FLuc
CCC(=O)/C(=C(/O)c1ccccc1)c1nc2ccccc2[nH]1
    15%, 2, 1.1%, -38%
CCOC(=O)c1oc2ccc3c(c2c1C)C(=O)CC1(CCN(C(=O)OCC)CC1)O3
    16%, 1, 2.5%, -10%
N/C(Cc1ccc([N+](=O)[O-])cc1)=N\OC(=O)c1ccc(Br)o1
    47%, -11, 0.9%, -6%
CC1CCCC(NC(=O)COC(=O)COc2ccc(C#N)cc2)C1C (stereo not given)
    -11%, ·, -1.2%, ·
CCN1C(=O)C(O)(CC(=O)c2ccc3c(c2)OCCO3)c2ccccc21 (stereo not given)
    -20%, 1, 3.5%, 5%
O=C(CN1C(=O)C2C3CCC(C3)C2C1=O)OCC(=O)c1ccc(Br)cc1 (stereo not given)
    2%, ·, 0.3%, -1%
CCOC(=O)c1c(-c2ccc(C)cc2)csc1NC(=O)C1CC=CCC1C(=O)O (stereo not given)
    -12%, 3, 1.4%, -6%
C=CCN1CN(Cc2ccco2)CNC1=S
    20%, 1, 0.5%, 0%
O=C(c1ccc(C(F)(F)F)cc1)N1CCC(=O)N(C(COCc2ccc(Cl)cc2)Cc2ccccc2)CC1 (stereo not given)
    -6%, -10, 0.5%, 7%
CN(C)Cc1c(C(=O)N/N=C/c2cccc(OCc3ccc(F)cc3)c2)nnn1-c1nonc1N
    9%, ·, 3.1%, 4%
Cc1nnc(SCSc2nnc(C)s2)s1
    0%, 1, -2.5%, -5%
O=C(/C=C/c1cn(-c2ccccc2)nc1-c1cccnc1)N1CCCCC1
    10%, -6, -0.2%, -8%

Arranged by the number under GLA inh pH 4.5 (ascending): some entries from above
Below each compound: Rango release inh, GLA inh pH 4.5, Rango complex inh, miR-21 FLuc
c1ccc(-n2ncc3c2ncn2nnnc32)cc1
    -1%, -1, 9.9%, -2%
CCN1C(=O)C(O)(CC(=O)c2ccc3c(c2)OCCO3)c2ccccc21 (stereo not given)
    -20%, 1, 3.5%, 5%
N#CC1=C(N)OC2=C(C(=O)CCC2)C1c1cccs1 (stereo not given)
    1%, 4, 1.3%, -11%

More entries.
Below each compound: Rango release inh, GLA inh pH 4.5, Rango complex inh, miR-21 FLuc
Cc1cc(N2CCN(C)CC2)nc2ccc(NC(=S)NCCC(C)C)cc12
    -2%, ·, 0.1%, -44%
CCCC(=O)NC(Nc1cccc(C(F)(F)F)c1)C(Cl)(Cl)Cl (stereo not given)
    1%, -8, -0.6%, 7%
COc1ccc(N2CCN(C(=O)CSc3nnc(-c4cccnc4)n3-c3ccccc3)CC2)cc1
    2%, -2, -1.0%, 3%
Cc1ccc(S(=O)(=O)N2CCC(NC(=O)C3CCCCC3)CC2)cc1
    0%, ·, 1.0%, 2%
CC(C)CNC(=O)N[C@@H](CC(C)C)C(=O)O
    -1%, 3, 2.0%, 3%
Cc1ccc(NC(=O)CSC2=C(C#N)C(c3ccco3)CC(=O)N2)cc1 (stereo not given)
    -7%, 0, -0.4%, -20%
Cc1cccc(N2C(=O)C3C4C=CC(C4)C3C2=O)c1 (stereo not given)
    -12%, 0, -0.5%, -3%
CCc1ccc(CN(C)C(=O)CCc2nnc(CCc3cccc(OC)c3)o2)nc1
    -3%, 5, -0.1%, -2%
CCCCCCSC1=C(C#N)C(c2ccccc2)CC(=O)N1 (stereo not given)
    -2%, -8, -2.5%, -7%
COc1ccc(CC2CCOC2=O)cc1 (stereo not given)
    5%, -3, 4.5%, -2%
O=C(/C=C/c1cccc(Cl)c1)c1nc2ccccc2[nH]1
    6%, 2, 2.7%, -5%
COc1cccc(OC)c1C(=O)Nn1c(C2CCC2)nc2ccccc2c1=O
    -12%, 3, 6.5%, 3%
C=CC[N+](C)(C)c1ccc(CCC(=O)CCc2ccc([N+](C)(C)CC=C)cc2)cc1
    -3%, ·, 5.2%, ·
O=C(O)c1ccc(CNC(=O)C23CC4CC(CC(C4)C2)C3)cc1
    15%, ·, -4.1%, 4%
O=C(NCc1cccs1)C1CCC(=O)N1C1CCCCC1 (stereo not given)
    -7%, 12, 6.4%, 1%
COc1cc(C(=O)OCc2ccc([N+](=O)[O-])cc2)cc(OC)c1OC
    28%, 3, 0.5%, -10%
COc1ccc(C(=O)NN/C(C)=C/C(=O)c2ccccc2)cc1
    13%, ·, 3.0%, -8%
Cc1nnc(NC(=O)CC(CN(C)S(=O)(=O)c2ccccc2)c2ccccc2)s1 (stereo not given)
    36%, -4, 5.9%, 6%
COCCn1c(SCC(=O)Nc2cccnc2Cl)nc2ccccc2c1=O
    32%, ·, -4.2%, ·
C=CCN=C1SC(C)(C)C(=O)N1S(=O)(=O)c1ccc(C)cc1
    -3%, -8, 6.9%, -2%

Below each compound: Rango release inh, GLA inh pH 4.5, Rango complex inh, miR-21 FLuc
Cc1cc(CN(C)C)c(O)c(C2(C)CCCCC2)c1
    -9%, -5, 2.3%, -5%
O=C(NC1CCS(=O)(=O)C1)c1cccc(S(=O)(=O)N2CCCC2)c1 (stereo not given)
    3%, 4, -0.6%, -6%
O=C1NC(=O)C(c2ccccc2)(c2ccccn2)N1 (stereo not given)
    19%, ·, 2.2%, ·
CC1CN(Cc2ccccc2)c2nc3c(c(=O)n(CC(N)=O)c(=O)n3C)n2C1 (stereo not given)
    -8%, ·, ?, -2%
COc1ccc(CCNC(=O)c2ccco2)cc1OC
    -10%, -1, -1.0%, -3%
COc1cc(-c2nnc(SCC(=O)N(C)C3CCS(=O)(=O)C3)o2)cc(OC)c1OC (stereo not given)
    2%, ?, -0.1%, 4%
CCOC(=O)C1CCN(c2nc3ccccc3nc2C(C#N)C(=O)OC(C)C)CC1 (stereo not given)
    ?, 7, ?, 2%
CCOC(=O)C1(Cc2cccc(OC)c2)CCCN(Cc2c(C)nn(C(C)C)c2C)C1 (stereo not given)
    -8%, -15, -5.9%, 0%
CC(=O)Nc1sc2c(c1CN1CCN(c3ccc(F)cc3)CC1)CCCC2
    0%, 1, -0.3%, 1%
COc1ncnc2c1NC(=O)CS2
    3%, 4, 1.5%, -2%
COc1cc(C2C(C#N)=C(C)NC3=C2C(=O)CC(C)(C)C3)ccc1OCCO (stereo not given)
    30%, -4, -1.8%, -7%
CCOC(=O)c1c(C)[nH]c(C(=O)OCC(=O)Nc2sccc2C(N)=O)c1C
    -14%, ·, ?, ·
COc1ccc(NC(=O)CC2C(=O)N(c3ccc(F)cc3)C(=S)N2NC(=O)c2ccccc2)cc1 (stereo not given)
    0%, 4, -1.5%, -34%
COc1ccc2[nH]c(=S)cc(C)c2c1
    -8%, 3, -0.5%, -6%
COc1cccc(C(=O)Nc2ccccc2N2CCCC2)c1
    -8%, -3, -2.6%, -9%
COC(=O)C(Cc1ccccc1)N1CCS(=O)(=O)CC1 (stereo not given)
    10%, -8, 1.1%, -2%
Cc1cc(N)ccc1S(C)(=O)=O
    0%, -5, -0.4%, 2%
